Source: PubChem BioAssay
GIV Gai3 FP: inhibitors of GIV peptide binding to Galpha-i3, primary screen, biochemical, fluorescence polarization, FITC-GIV GBA peptide, rat Galphai3. 90 min; active compounds read low; scaled: aluminum fluoride 0%, vehicle 100%. percent of control (FP), % (no concentration beside the values). Guanine nucleotide-binding protein G(i) subunit alpha-3 (Rattus norvegicus), P08753. hit rate 0.42% among 210,000;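 active = replicate mean at 85% of control or lower, very high polarization wells dropped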;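 also: wells of about 15 µL received 100 nL stock; the first replicate is given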
Target sequence (P08753 whole entry, looked up): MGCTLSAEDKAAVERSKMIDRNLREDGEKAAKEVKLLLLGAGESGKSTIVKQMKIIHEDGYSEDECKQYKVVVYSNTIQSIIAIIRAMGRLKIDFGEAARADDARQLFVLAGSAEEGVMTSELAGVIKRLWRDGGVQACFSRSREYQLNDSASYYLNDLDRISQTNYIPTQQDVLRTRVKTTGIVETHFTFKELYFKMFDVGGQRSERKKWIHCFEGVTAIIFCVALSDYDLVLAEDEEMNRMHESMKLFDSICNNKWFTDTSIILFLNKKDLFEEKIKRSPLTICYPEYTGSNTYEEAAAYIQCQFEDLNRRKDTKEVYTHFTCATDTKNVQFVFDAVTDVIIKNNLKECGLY
HCMV NEC inh: inhibitors of HCMV UL50-UL53 interaction, biochemical, HTRF | normalized percent inhibition | inhibition, % (concentration not given with the values) | hit rate 0.15% among 190,000;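 active = both replicates at 50% or more, plus weaker picks with an unusually low signal ratio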;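 also: stock transfer was 100 nL into about 20 µL; 0% = negative control wells and 100% = wells with untagged competitor protein; inactives centre near -12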
Sa growth inh: S. aureus growth inhibition at 42 and 30 °C, primary screen, LtaS inhibitor project, RN4220, two temperatures; hit rate 0.53% among 170,000; OD600, 20 h, 42 °C; active compounds read low; relative growth, % (concentration not given with the values);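 active = growth at 42 °C up to 50% and 20 or more points under that at 30 °C, or under 10% at both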;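 also: 300 nL library stock went into each well; scaled to the means of positive and negative controls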
Sa growth inh second temp: second read-out of Sa growth inh, no call of its own (marks repeat the call); relative growth, %; measured here: growth at 30 °C;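 optical density after 20 h as mean of two plates; 100% = untreated growth and lower means inhibition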
Starred values were filed as active, the others as inactive; . = not tested or not shown. This is a random part of the collection (roughly 0.79% active in at least one column).

SMILES	GIV Gai3 FP	HCMV NEC inh	Sa growth inh	Sa growth inh second temp
O=C(OC(C(=O)c1ccccc1)c1ccccc1)c1ccco1 (stereo unspecified)	.	-19	94	96
COC(=O)COc1cc(C)nc(SC)n1	100	-14	103	96
N#Cc1sc2nc(-c3ccncc3)cc(C(F)(F)F)c2c1N	.	-9	98	91
CC(C)n1c(SCC(=O)O)nc2cc(Cl)ccc21	103	-28	129	91
CCC1CCCCN1C(=O)CN1C(=O)c2ccccc2C1=O (stereo unspecified)	102	.	93	74
O=C(NC1CCCCCCCCCCC1)c1ncn[nH]1	.	-6	101	89
CN(C)C(=O)c1cccc2c1NC(c1ccc(Br)cc1)C1CC=CC21 (stereo unspecified)	102	-11	.	.
COc1ccc(C2=NN(C(=O)c3ccc(Br)o3)C(c3ccc(OC)cc3)C2)cc1 (stereo unspecified)	107	-16	.	.
CCOC(=O)N/N=C\c1cn(C)c2ccccc12	105	-52	88	82
CCCCN(CC)CCNC(=O)C1CCCN(S(=O)(=O)c2cccc3nsnc23)C1 (stereo unspecified)	103	-63	100	98
Cc1cc(NC2=CC(=O)CCC2)ccc1I	.	7	83	92
CCOc1ccccc1CNC(=O)Cn1nc(N2CCN(c3ccccc3)CC2)ccc1=O	106	.	95	84
O=C(Nc1cccc(-c2nnn(CC(=O)N3CCc4ccccc4C3)n2)c1)C1CCC1	105	-7	101	80
O=C(c1nc(-c2ccccc2)n(-c2ccccc2)n1)N1CCc2ccccc2C1	100	14	.	.
FC(F)(F)c1ccc(NCc2cn3ccccc3n2)cc1	.	7	144	86
Cc1ccccc1N1C(=O)Cc2ccccc2C1=O	.	-30	110	95
COc1ccc(C2=NN(C(=O)CCC(=O)O)C(c3ccc(Cl)cc3)C2)cc1 (stereo unspecified)	107	-42	.	.
O=C(COC(=O)c1ccccc1NCCO)NCc1ccc(F)cc1	.	-31	72	95
O=C1Nc2ccccc2S/C1=C\c1ccccc1	.	-12	80	98
COc1ccc(CCNC(=O)C(=O)NCC(c2ccco2)S(=O)(=O)c2ccc(C)cc2)cc1 (stereo unspecified)	103	.	105	99
FC(F)(F)c1ccc(CN2CCCCCCC2)cc1	98	-7	103	105
CC(C)NC(=O)Cc1ccc(Br)cc1	100	-7	108	106
O=C1COc2cc(S(=O)(=O)N3CCC(C(=O)NC4CC4)CC3)c(Cl)cc2N1	106	16	.	.
CCOC(=O)c1c(NC(=O)c2ccc(S(=O)(=O)N(CC)CC)cc2)sc2c1CCCCC2	101	-14	94	93
NCCNc1cc(-c2ccccc2)nc2ccccc12	101	-6	103	92
CC(C)n1c(=N)c(C(=O)NCc2ccccc2)cc2c(=O)n3ccccc3nc21	110	-82	106	98
CC(C)Cn1c(CCC(=O)O)ccc1-c1ccccc1	105	-12	100	85
COc1ccc(NC(=O)C2=Cc3ccc(C)cc3OC=C2)cc1Cl	94	-14	.	.
Cc1noc2ncnc(N3CCCC(C(=O)NCc4ccccc4)C3)c12 (stereo unspecified)	101	12	.	.
COC(=O)CNC(=O)c1ccccc1Cl	102	-7	120	106
Cc1cc2nc(CSc3nnc(NC(=O)Nc4cccc(F)c4)s3)cc(=O)n2o1	104	-10	.	.
CCOC(=O)c1cnn2c(C(F)(F)F)cc(-c3ccc(Br)cc3)nc12	99	.	89	50
O=[N+]([O-])c1ccc2nc(SCc3nc4ncccn4c3Br)[nH]c2c1	108	-14	.	.
CCn1c(-c2ccccc2)c(C(=O)CN2CCN(C)CC2)c2ccccc21	.	-6	152	3
CC(C)(C)C(=O)CN1CCN(c2ccccc2O)CC1	.	-12	85	83
O=S(=O)(NC1CCCCC1)c1ccc(S(=O)(=O)N(Cc2ccccc2)CC2CCCO2)cc1 (stereo unspecified)	98	-15	.	.
O=C(c1cc2ccccc2oc1=O)N1CCSC1c1ccco1 (stereo unspecified)	102	-7	103	60
O=c1[nH]c2cc(Cl)c(S(=O)(=O)N3CCOCC3)cc2[nH]1	98	-64	.	.
COC(=O)c1ccsc1NC(=O)C1COc2ccccc2O1 (stereo unspecified)	106	-20	89	86
CC(C)(C)c1ccc(N=Cc2ccsc2)cc1	.	-38	140	87
O=c1cc(O)nc2c(Cl)cc(C(F)(F)F)cn12	.	-18	108	86
CC1(C)Oc2ccc(N)cc2O1	108	-32	83	79
Cc1ccc(NC(=O)c2c(NC(=O)c3ccc(F)cc3)sc3c2CCCC3)cc1C	109	-89	95	81
CCOC(=O)c1c(C)oc2ncnc(N(C)Cc3ccccc3)c12	99	-26	100	86
COCCNC(=O)CSc1nnc(-c2ccc(OC)c(OC)c2)c(-c2ccc(OC)c(OC)c2)n1	101	.	102	90
Cc1ccc(NC(=O)Nc2c(C)noc2-c2ccc(C(F)(F)F)cc2)cc1	104	-10	99	94
CCCc1cc(=O)[nH]c(SCC(=O)c2ccccc2OC)n1	.	-20	90	91
CCc1nn2c(=O)cc(COC(=O)c3ccc(NC(=O)CCc4ccccc4)cc3)nc2s1	101	.	92	92
Cc1ccc(-c2cc(C(F)(F)F)c(C#N)c(SCC(=O)Nc3ccccc3F)n2)cc1	114	-30	99	87
Nc1ccccc1C(=O)NCc1ccco1	.	-6	102	99
COc1ccc(OC)c(Nc2nc3ccccc3nc2-n2nc(C)cc2C)c1	105	-7	102	83
COc1ccc(NC(CC(=O)C2CC2)c2ccccc2)cc1 (stereo unspecified)	104	-6	103	88
N=c1c2c3c(sc2nc2n1CCCCC2)CCCC3	107	-5	.	.
CSC1=NC2(CCCCCC2)Cc2ccccc21	.	-14	108	98
O=C(CSc1ccccn1)NC12CC3CC(CC(C3)C1)C2	.	-16	102	87
CC(=O)Nc1c(C)nn(-c2ccccc2)c1N1CCC(C(=O)NCc2cccc(F)c2)CC1	108	.	94	99
Cc1nnc(NCc2ccccc2)n(N)c1=O	98	.	96	82
c1ccc(OCc2nn3c(CSc4ccccc4)nnc3s2)cc1	109	-6	.	.
CCN(CC)S(=O)(=O)c1ccc2c(c1)oc(=O)c1cc(S(=O)(=O)N(CC)CC)ccc12	104	20	102	99
CN1CCC(=NNC(=O)c2ccc(CN3C(=O)c4cccc5cccc3c45)cc2)CC1	.	-68	104	88
Later entries.
SMILES	GIV Gai3 FP	HCMV NEC inh	Sa growth inh	Sa growth inh second temp
CSC1=NC=C(C#N)C2=NC(C)(c3ccc(Cl)c(Cl)c3)NN12 (stereo unspecified)	105	-10	74	64
NC(=O)CSc1nc2ncccc2c(=O)n1-c1ccccc1	93	12	.	.
CCCC12CN3CC(CCC)(CN(C1)C3c1ccc(OCc3ccccc3)cc1)C2=O (stereo unspecified)	103	6	97	86
CC[N+]1(Cc2ccccc2)C2=C(CN(C)CC2)c2ccccc21 (stereo unspecified)	101	.	108	82
Cc1cc(C)c(NC(=O)C(C)(C)C)c(C)c1	96	-5	98	86
CC1CCCN(CCCNS(=O)(=O)c2csc(C(N)=O)c2)C1 (stereo unspecified)	104	-38	90	80
O=C(Nc1ccccc1)C1Nc2cc(F)ccc2S(=O)(=O)N1 (stereo unspecified)	94	-20	.	.
CCOc1ccc(C(C)C)cc1S(=O)(=O)Nc1ccc(-c2ccc(N3CCCC3)nn2)cc1	102	-37	.	.
Cc1ccc(NC(=O)Cn2c3c(c(=O)n4ncnc24)CCC3)cc1Cl	102	-27	.	.
Cc1cc(NC(=O)c2ccccc2)n(C(C)(C)C)n1	101	-2	122	87
CC(C)c1ccc(-n2c(CCC(=O)O)ccc2-c2cccs2)cc1	103	-32	47	51
O=C(NCc1ccco1)c1ccc2c(c1)C(=O)N(Cc1ccccc1)C2=O	105	-45	101	93
Cc1ccc(/C=N/NC(=O)CSc2nc3ccccc3n2Cc2ccccc2)o1	102	8	99	96
Cc1ccc2nc(-c3ccccc3F)oc(=O)c2c1	109	-9	95	78
CCOC(=O)c1cnc(SC2CC(=O)N(c3ccccc3)C2=O)nc1N (stereo unspecified)	102	3	137	93
CCc1ccc(S(=O)(=O)Nc2ccc3[nH]c(=O)sc3c2)cc1	100	.	68	43
Cc1ccccc1Nc1nc(N)nc(COC(=O)CC2Sc3ccccc3NC2=O)n1 (stereo unspecified)	.	5	116	101
CCN1C(=O)c2ccc(C(=O)Nc3ccc(OC)cc3)cc2C1=O	107	-1	102	109
CC(C)c1cccc(C(C)C)c1NC(=O)CCCN1C(=O)NC2(CCCC2)C1=O	.	-12	107	90
CC(=NCCc1c(C)[nH]c2ccc(OC(F)(F)F)cc12)C1=C(O)CC(c2ccccc2)CC1=O (stereo unspecified)	.	-8	95	84

No new results follow: an excerpt of the list.
SMILES	GIV Gai3 FP	HCMV NEC inh	Sa growth inh	Sa growth inh second temp
CSC1=NC=C(C#N)C2=NC(C)(c3ccc(Cl)c(Cl)c3)NN12 (stereo unspecified)	105	-10	74	64
NC(=O)CSc1nc2ncccc2c(=O)n1-c1ccccc1	93	12	.	.
CCCC12CN3CC(CCC)(CN(C1)C3c1ccc(OCc3ccccc3)cc1)C2=O (stereo unspecified)	103	6	97	86
CC[N+]1(Cc2ccccc2)C2=C(CN(C)CC2)c2ccccc21 (stereo unspecified)	101	.	108	82
Cc1cc(C)c(NC(=O)C(C)(C)C)c(C)c1	96	-5	98	86

Other records:
SMILES	GIV Gai3 FP	HCMV NEC inh	Sa growth inh	Sa growth inh second temp
OC(CN1CCN(c2ccccc2F)CC1)c1ccc2[nH]ccc2c1 (stereo unspecified)	104	-16	103	83
Cn1ccnc1SCC(=O)N1c2ccccc2C(C)(c2ccc(Cl)cc2)CC1(C)C (stereo unspecified)	99	.	98	101
CCN(C(=O)C(NS(=O)(=O)c1cccc2nsnc12)c1ccccc1)c1ccccc1 (stereo unspecified)	113	-85	82	88
COCCN1C(=O)c2ccccc2C(C(=O)NCCCN2CCCC2)C1c1ccc(F)cc1 (stereo unspecified)	100	-3	109	90
COc1ccccc1NC(=O)CSc1ncc2c(n1)-c1ccccc1N(Cc1ccc(C)cc1)S2(=O)=O	112	-20	.	.
COc1ccc(NC(=O)c2c(NCc3cccc(F)c3)sc3c2CCC3)c(OC)c1	102	.	97	47
CCCN(Cc1cccs1)C(=O)Nc1cc(Cl)c(OC)cc1OC	96	-8	115	88
CC(=O)OC1=C(C)C(c2ccccc2)N(C(C)=O)C(c2ccccc2)C1C (stereo unspecified)	104	1	98	89
Cc1noc(C)c1Cc1c(Cl)cccc1Cl	100	-16	.	.
O=C(NCCN1CCOCC1)N(c1ccccc1)c1ccccc1	99	-32	99	85
COC(=O)COc1ccc(S(=O)(=O)N2CCN(c3cc(Cl)ccc3C)CC2)cc1	106	0	106	99
CC(C)NC(=O)N1CCC(n2nnc3ccccc3c2=O)CC1	107	-36	.	.
COc1ccc(C2CC(=O)C3=C(C2)NC(C)=C(C(=O)OC(C)C)C3c2ccc(OC)cc2OC)cc1 (stereo unspecified)	102	-8	.	.
Cc1cc(NC(=O)CCc2nc3cccnc3n2Cc2cccs2)ccc1Br	123	-24	115	81
CCC1=C(c2ccc(C)cc2)S(=O)(=O)NC1=NCC(=O)O	104	-12	84	94
CCOC(=O)c1ccc(CNS(=O)(=O)c2cccc(S(=O)(=O)c3ccc(Cl)cc3)c2)o1	102	-27	87	74
COc1ccc(Cc2nnc3sc(-c4ccccc4OC)nn23)cc1	107	-17	.	.
Oc1ccc(-c2ccc(I)cc2)cc1	.	-14	96	91
COc1ccc(OC)c(CCNC(=O)c2ccc(CS(=O)(=O)c3c(Cl)cccc3Cl)o2)c1	104	7	101	73
O=C1NC(=O)C2(CCc3ccccc32)N1 (stereo unspecified)	.	-1	98	96

Entries of single compounds from above:
Results for CCOC(=O)c1ccc(CNS(=O)(=O)c2cccc(S(=O)(=O)c3ccc(Cl)cc3)c2)o1 = GIV Gai3 FP: 102; HCMV NEC inh: -27; Sa growth inh: 87; Sa growth inh second temp: 74
Results for CCN(C(=O)C(NS(=O)(=O)c1cccc2nsnc12)c1ccccc1)c1ccccc1 (stereo unspecified) = GIV Gai3 FP: 113; HCMV NEC inh: -85; Sa growth inh: 82; Sa growth inh second temp: 88

Returning to the listing; the 2 compounds before the break are reprinted first.
SMILES	GIV Gai3 FP	HCMV NEC inh	Sa growth inh	Sa growth inh second temp
COc1ccc(OC)c(CCNC(=O)c2ccc(CS(=O)(=O)c3c(Cl)cccc3Cl)o2)c1	104	7	101	73
O=C1NC(=O)C2(CCc3ccccc32)N1 (stereo unspecified)	.	-1	98	96
COc1ccc(-c2onc(C)c2C)cc1S(=O)(=O)N1CCC(C)CC1	104	.	83	89
Cc1c(Cl)cccc1NC(=O)CN1C(=O)C2(OCCCO2)c2ccccc21	106	2	97	85
CCc1ccc(NC(=O)CN(C)S(=O)(=O)c2ccc3c(c2)c(=O)n(C)c(=O)n3C)cc1	101	8	94	96
CCc1nnc(SCCSc2nnc(CC)n2N)n1N	116	1	100	101
O=C(NCCc1nc2ccccc2n1CCCOc1ccc(Cl)cc1)C1CCCCC1	104	4	110	75
COc1ccc(CNCc2c(C(=O)O)n(Cc3ccc(F)cc3)c3cc(C)ccc23)cc1OC	116	.	96	94
CSc1nc(CSc2ccc(C)cc2)nc(N)c1C#N	102	-24	85	88
CN(C)c1cc(-c2ccccc2)nc(-c2ccccc2)n1	102	5	107	127
COc1ccc(C(=O)Nc2cccc3ncccc23)cc1OC	.	-38	94	94
